RN4220 kill – kills Staphylococcus aureus RN4220; S. aureus RN4220 growth, OD600, 16 h; inhibition, % (test concentration not listed); actives 0.33% (n = 330,000); AID 1259311;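 active means z-score of -3 or lower and OD600 up to 0.18 on both plates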;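 further: plate controls were untreated cells for no effect and reference antibiotic for full effect; stock transfer was 100 nL into about 80 µL; one replicate is shown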
PrP UTR inh – inhibition of PrP 5' UTR reporter expression | cell-based PrP 5' UTR mRNA reporter, plate reader | inhibition, % (test concentration not listed) | actives 0.35% (n = 340,000) | AID 488862;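 active means every replicate at 50% or more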;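 further: 0 = median of the neutral control wells; tested in H4 reporter cells; numbers are from one replicate; inactives centre near -14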
ugtP null kill – compounds lethal to S. aureus RN4220 ugtP deletion mutant. OD600 growth, 16 h; some inactives read as strong as hits. actives 0.54% (n = 330,000). growth inhibition, % (concentration not given with the values);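 active means z-score under -3 and OD600 up to 0.15 on both plates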;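 further: plate controls were untreated wells for no effect and antibiotic for full effect; wells of about 80 µL received 100 nL stock; the first replicate is given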
Mtb hypoxia rep – inhibitors of hypoxia-regulated fluorescent reporter in Mycobacterium tuberculosis; M. tuberculosis hypoxia-regulated fluorescent reporter, fluorescence; fluorescence inhibition, % (concentration not given with the values); actives 0.1% (n = 300,000);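 active means 35 to 45% if threefold the growth effect, above 45% if 1.5-fold the growth effect; inactive means the rest, general growth blockers included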;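 further: wells of about 50 µL received 100 nL stock; 0% = vehicle wells and 100% = reference inhibitor wells; whole bacteria with a GFP reporter of the hypoxia response; strong numbers were not always called active; many hits fall short of the cut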
BJeLR viability – kills HRASV12-expressing BJeLR cells. BJeLR (HRASV12) viability, CellTiter-Glo ATP luminescence, 48 h; reference of the scale not given here. inhibition, % (test concentration not listed). actives 0.17% (n = 300,000). AID 1554;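 active means replicate mean above 50%; inconclusive means above 50% but judged a plate artefact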;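 further: 50 nL library stock added to about 25 µL; numbers are from one replicate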
Autofluor counter – compound fluorescence in toxin protease inhibitor counterscreen | fluorescence intensity (test concentration not listed) | compound autofluorescence counterscreen, microsphere flow cytometry; stronger effect = higher value | actives 3.1% (n = 360,000);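 active means at least 3 SD above the mean of all compounds, about 16000 in these data; inconclusive means too few beads counted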;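 further: 100 nL of 1 mM stock went into each well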
Mtb hypoxia rep growth – recorded beside Mtb hypoxia rep, whose call it bears; growth inhibition, %; measured here: M. tuberculosis growth (absorbance);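 0% = vehicle and 100% = reference antibiotic; read after six days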
Starred values were filed as active, the others as inactive; ? = inconclusive; . = not tested or not shown; & = joins results of further samples.

Sample of the layout (two entries):
SMILES	RN4220 kill	PrP UTR inh	ugtP null kill	Mtb hypoxia rep	Mtb hypoxia rep growth	BJeLR viability	Autofluor counter
CCCCn1c(SCC(=O)NC2CC(C)(C)NC(C)(C)C2)nc2cc(S(N)(=O)=O)ccc21	3.9	-11	14	-6	-3	-2	2460
Cn1nccc1C(=O)Nc1ccn(C23CC4CC(CC(C4)C2)C3)n1	-3.5	-34	-13	-2	3	8	2546

The whole of this part, repeating the preview:
SMILES	RN4220 kill	PrP UTR inh	ugtP null kill	Mtb hypoxia rep	Mtb hypoxia rep growth	BJeLR viability	Autofluor counter
CCCCn1c(SCC(=O)NC2CC(C)(C)NC(C)(C)C2)nc2cc(S(N)(=O)=O)ccc21	3.9	-11	14	-6	-3	-2	2460
Cn1nccc1C(=O)Nc1ccn(C23CC4CC(CC(C4)C2)C3)n1	-3.5	-34	-13	-2	3	8	2546
O=C1c2ccccc2C(=O)N1CCc1csc(-c2ccc(F)cc2)n1	-2.5	-21	-13	-19	-3	-3	9975
COc1ccc(N2C(=O)CC(N3CCC(c4nc5ccccc5[nH]4)CC3)C2=O)cc1 (stereo not given)	9.8	-23	11	3	1	5	22767*
CSc1sc(-c2n[nH]c(=S)n2C)c2c1C=CCC2	9.2	-22	0	6	10	-7	4390
O=C(Nc1ccc(Cl)cc1C(=O)c1ccccc1)c1ccc(Br)o1	0.4	-15	11	.	.	-2	3985
CCOc1cc(C=NNC(=O)C(=O)NC)cc(Br)c1O	1.2	.	-3	19	3	.	.
COC(=O)C(Cc1ccccc1)NC(=O)OC1C(=O)c2ccc(OC)cc2OC1c1ccc2c(c1)OCO2 (stereo not given)	19	.	9	-8	4	.	.
O=C(NC(Cc1ccccc1)C(=O)O)/C(=C/c1cccc([N+](=O)[O-])c1)NC(=O)c1cccc(Br)c1 (stereo not given)	2.3	-32	9	-5	-4	2	4119
Cc1ccc(NC(=O)c2cccc(OCc3c(C)noc3C)c2)cc1S(=O)(=O)Nc1ccccc1Cl	-4.3	-20	-15	-12	-4	9	9659
Cc1oc2c(C)c3oc(=O)c(CCC(=O)NCCCN4CCCC4=O)c(C)c3cc2c1C	5.4	-11	-2	.	.	2	5425
CCCCCCC1CC(CCc2nc(=S)[nH][nH]2)C(=O)O1 (stereo not given)	4.9	-30	7	0	2	3	8714
COC(=O)c1ccccc1S(=O)(=O)NC(=O)c1ccccc1	8.6	-7	3	.	.	0	4794
COc1cccc(-c2cc(C(=O)Nc3cccnc3Cl)no2)c1	4.5	-26	2	10	8	10	5786
CCS(=O)(=O)NCc1nnc2n1-c1ccc(Cl)cc1C(c1ccccc1)=NC2	1.1	-12	5	1	-1	-20	2540
C/C(=N\NC(=O)C1CC1)c1ccccc1O	.	-13	.	.	.	-10	3299
CCOc1ccc(-c2cc(NC(=O)c3c(F)cccc3F)c(C(=O)O)s2)cc1	-0.1	-1	66	-5	-13	-4	3331
O=C1/C(=C/c2ccc(F)cc2)SC(=S)N1Nc1ncc(C(F)(F)F)cc1Cl	-2.8	-4	-16	7	7	-14	3315
CCOC(=O)c1csc(NC(=O)c2ccccc2)n1	-3.0	-38	13	10	2	-8	4418
CCn1c(COc2ccccc2)nnc1SCC(=O)c1cccc([N+](=O)[O-])c1	0.3	-18	3	6	-1	0	10440
CCN(C[C@H]1N[C@@](C)(C(=O)OC)[C@H]2C(=O)N(C)C(=O)[C@@H]12)C(=O)Nc1ccc(C)cc1	2.5	-5	4	1	2	.	4063
O=C(O)/C=C/C(=O)N(Cc1ccc2c(c1)OCO2)C1CC(=O)N(CCc2ccccc2)C1=O (stereo not given)	-1.5	-29	2	9	-11	7	4630
CC(C)CNS(=O)(=O)c1ccc(S(=O)(=O)N2CCC(N3CCCCC3)CC2)cc1	0.8	-14	2	13	4	2	3026
Cc1nc2nc[nH]n2c(=O)c1CC(=O)O	3.3	-17	-1	3	8	-4	4355
Cc1noc(NS(=O)(=O)c2ccc(NC(=O)COc3ccc(Cl)cc3Cl)cc2)c1C	4.2	-18	-3	13	12	2	5660

Next compounds
SMILES	RN4220 kill	PrP UTR inh	ugtP null kill	Mtb hypoxia rep	Mtb hypoxia rep growth	BJeLR viability	Autofluor counter
CC(C)(C)c1cc(C(=O)NN)n(Cc2ccc(F)cc2)n1	1.2	-10	1	1	-5	-4	5410
CC(=O)c1c(C)[nH]c(C(=O)Nc2cccc(S(=O)(=O)N3CCOCC3)c2)c1C	3.8	12	7	.	.	-24	2006
Cc1nc2ccccc2n1CCc1nc2c3ccccc3nc(=S)n2[nH]1	1.7	-9	-7	1	19	-2	23484*
COc1ccc(C)cc1NC(=O)c1cc(-c2ccccc2)nc2c1cnn2C(C)C	2.0	-17	-1	10	5	.	3637
CCNC(=O)n1cc(-n2cncn2)c(-c2ccc(Cl)cc2)n1	3.8	-8	2	-7	-12	-2	2026
O=C(Nc1c2c(nn1-c1ccccc1)CS(=O)C2)c1ccc(S(=O)(=O)N2CCOCC2)cc1 (stereo not given)	2.5	-7	6	0	2	-2	2359
COc1ccc(C(=O)Nc2ccc(Cl)cn2)cc1Cl	6.4	-130	19	8	6	-14	10076
CC(=O)c1ccc(CCCCCCCCCC(=O)O)s1	26	1	-9	-5	-6	-7	?
CC(C)CNC(=O)COC(=O)c1cc(S(=O)(=O)N2CCCCC2)ccc1N1CCOCC1	-13	-11	-2	9	3	1	3207
Cn1c(CNC(=O)CNS(=O)(=O)c2ccc(F)cc2F)cc(=O)n(C)c1=O	0.1	12	0	4	-3	10	4016
CC(=O)c1cccc(NC(=O)CC2Oc3ccc(C)cc3NC2=O)c1 (stereo not given)	2.6	-24	8	.	.	-11	6064
C=CC(=O)Nc1cccc(Oc2cc(Cl)nc3[nH]ccc23)c1	-3.0	-25	-6	9	14	.	4819
Cc1cc(C)cc(Oc2coc3cc(O)ccc3c2=O)c1	8.7	-13	25	6	6	-5	3184
COc1cccc(OCc2cc(C(=O)N3CCNC(=O)C3Cc3ccccc3)no2)c1 (stereo not given)	3.5	-38	0	0	0	-3	5231
CCCOC1CCCN(C(=O)c2cc(COc3ccc(-n4cncn4)cc3)on2)C1 (stereo not given)	4.4	-21	2	-2	-1	4	6261
Fc1ccc(-c2nnc(CN3CCN(c4ncc(C(F)(F)F)cc4Cl)CC3)o2)cc1	3.7	-16	-5	4	11	-3	8500
COC(=O)c1[nH]c2ccc(C)cc2c1NC(=O)CN1CCc2cc(OC)c(OC)cc2C1	-3.8	-25&-1	-12	0	20	-3	2753
Cc1c(C(=O)N2CCOCC2)[nH]c2c1C(=O)CC(c1ccccc1Cl)C2 (stereo not given)	-1.7	-57	2	2	-4	24	10515
CC(=O)c1ccc(NC(=S)NC(=O)CC(C)C)cc1	-2.2	-56	30	23	38	-5	2220
CCOc1ccc(N(CC(=O)Nc2ccccc2OCC)S(=O)(=O)c2c(C)noc2C)cc1	1.2	-21	9	-1	-3	29	5896
Cc1cccc(C)c1OCC(=O)NN=Cc1cccn1C	6.0	.	-1	3	3	.	.
CCCCNC(=S)N=Nc1c(O)[nH]c2ccccc12	-0.9	-30	-6	6	12	-1	3410
COc1cc(/C=N\NC(=O)CNC(=O)C2COc3ccccc3O2)ccc1O (stereo not given)	.	-50	.	.	.	7	2072
CCOC(=O)C1=C(O)CSC1=Nc1cccc(Cl)c1	-0.5	-14	-1	.	.	-3	2781
O=C(O)CNC(=O)C(Cc1ccccc1)NC(=O)OCc1ccccc1 (stereo not given)	1.3	5	-3	2	4	14	3636

Reprinted from the results shown, 13 compounds:
SMILES	RN4220 kill	PrP UTR inh	ugtP null kill	Mtb hypoxia rep	Mtb hypoxia rep growth	BJeLR viability	Autofluor counter
CC(C)(C)c1cc(C(=O)NN)n(Cc2ccc(F)cc2)n1	1.2	-10	1	1	-5	-4	5410
CC(=O)c1c(C)[nH]c(C(=O)Nc2cccc(S(=O)(=O)N3CCOCC3)c2)c1C	3.8	12	7	.	.	-24	2006
Cc1nc2ccccc2n1CCc1nc2c3ccccc3nc(=S)n2[nH]1	1.7	-9	-7	1	19	-2	23484*
COc1ccc(C)cc1NC(=O)c1cc(-c2ccccc2)nc2c1cnn2C(C)C	2.0	-17	-1	10	5	.	3637
CCNC(=O)n1cc(-n2cncn2)c(-c2ccc(Cl)cc2)n1	3.8	-8	2	-7	-12	-2	2026
O=C(Nc1c2c(nn1-c1ccccc1)CS(=O)C2)c1ccc(S(=O)(=O)N2CCOCC2)cc1 (stereo not given)	2.5	-7	6	0	2	-2	2359
COc1ccc(C(=O)Nc2ccc(Cl)cn2)cc1Cl	6.4	-130	19	8	6	-14	10076
CC(=O)c1ccc(CCCCCCCCCC(=O)O)s1	26	1	-9	-5	-6	-7	?
CC(C)CNC(=O)COC(=O)c1cc(S(=O)(=O)N2CCCCC2)ccc1N1CCOCC1	-13	-11	-2	9	3	1	3207
Cn1c(CNC(=O)CNS(=O)(=O)c2ccc(F)cc2F)cc(=O)n(C)c1=O	0.1	12	0	4	-3	10	4016
CC(=O)c1cccc(NC(=O)CC2Oc3ccc(C)cc3NC2=O)c1 (stereo not given)	2.6	-24	8	.	.	-11	6064
C=CC(=O)Nc1cccc(Oc2cc(Cl)nc3[nH]ccc23)c1	-3.0	-25	-6	9	14	.	4819
Cc1cc(C)cc(Oc2coc3cc(O)ccc3c2=O)c1	8.7	-13	25	6	6	-5	3184

Continued:
SMILES	RN4220 kill	PrP UTR inh	ugtP null kill	Mtb hypoxia rep	Mtb hypoxia rep growth	BJeLR viability	Autofluor counter
Cc1cccc(NC(=O)CSc2cccc[n+]2[O-])c1C	1.4	-18	-1	4	-9	.	4366
O=C(NC1CCS(=O)(=O)C1)c1ccc(S(=O)(=O)N2CCCC2)cc1 (stereo not given)	2.5	6	7	7	-1	-8	4473
CC(C)COc1ccc(C(=O)NC(CC(C)C)C(=O)O)cc1 (stereo not given)	-8.3	-22	-3	18	8	2	3262
COc1ccc(NC(=O)CSc2nncc3ccccc23)cc1	2.5	21	7	10	4	-1	5309
NC(=O)c1ccc(N2CCN(c3ccccc3F)CC2)c([N+](=O)[O-])c1	1.9	1	-8	-9	5	25	4217
O=C(CCC(=O)N1CCN(c2ccccc2F)CC1)N1CCN(c2ccccc2)CC1	3.0	-10	0	-3	3	-1	3474
CC(C)(O)C#Cc1ccc(C(=O)N2CCCC(CNS(=O)(=O)c3cccs3)C2)o1 (stereo not given)	2.2	4	3	-4	-9	2	4671
COC(=O)c1cccc2c1NC(=O)C2=O	1.5	-7	3	9	5	-10	3155
O=C1CCCc2c1cnc1ncnn21	2.3	-23	6	-3	11	-5	1940
O=C(NN=Cc1ccc2c(c1)OCO2)NN=Cc1ccc2c(c1)OCO2	1.7	-34	1	6	7	.	2893
CC(NC(N)=O)C(=O)OCc1ccc(Cl)cc1Cl (stereo not given)	1.7	-10	1	.	.	4	2811
COc1ccc(S(=O)(=O)N2CCC(C(=O)NCc3ccc(C)cc3)CC2)cc1	.	-3	.	.	.	5	3673
COc1ccc(CN2CCN(C(=O)CN3C(=O)C4C5C=CC(C5)C4C3=O)CC2)c(OC)c1OC (stereo not given)	2.9	-4	4	-5	1	6	4168
CCCOc1ccc(-c2c(C(=O)N/N=C(\C)c3cccnc3)nnn2-c2nonc2N)cc1	.	-21	.	.	.	-7	4225
COc1ccc(C)cc1NC(=S)N1CCN(S(C)(=O)=O)CC1	7.1	10	2	9	9	-11	2440
O=C(Nc1ccc(F)cc1F)c1ccccc1NC(=O)C1CC=CCC1C(=O)O (stereo not given)	-0.2	-15	-5	5	12	-2	?
O=C(NCCN1CCCCC1)c1ccc(C=NO)nc1	5.2	.	5	0	2	.	.
O=C(NN=Cc1ccc2cccnc2c1)c1ccco1	4.3	.	-7	-5	-13	.	.
O=C(CSc1nncs1)N1CCN(C(=O)c2ccco2)CC1	2.0	-5	5	0	-4	3	6614
Cc1cc(SCC(=O)NC2CCCCC2)nc2ccccc12	0.2	-3	-1	-1	11	-4	4039
O=c1c(N2CCCCC2)coc2ccccc12	5.9	-54	-3	17	13	-3	2758
CCCn1c(=O)c2c(nc3n2CCCN3CCc2ccccc2)n(C)c1=O	0.3	-14	20	18	14	3	2876
CCOc1ccccc1C1CC(=O)Nc2cc3c(cc21)OCCO3 (stereo not given)	-1.2	56*	0	5	0	31	16905*
Fc1ccc(Cn2nnnc2C(c2cccs2)N2CCN(C3CCCCC3)CC2)cc1 (stereo not given)	-1.5	-31	0	12	-9	5	4553

Screening results: PubChem, several laboratories
